High-throughput results as filed in PubChem BioAssay.
miR-21 FLuc: raises the signal of a miR-21 reporter; HeLa miR-21 FLuc reporter, luciferase, 48 h; Potency, µM (titrated, usually from 38.3 µM), for the others: at the highest dose reporter change, positive = more light; 340,000 tested, under 10 active; AID 2288; active = well fitted rising curve with a large enough effect; inconclusive = small, poorly fitted or top-dose-only effect; inactive = no such curve, though single readings can be large or run the other way;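 also: % of control where 0% means no effect; miR-21 action dims this reporter so a rising signal means less miR-21 action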
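HeLa cells endogenously expressing miR-21, stably carrying CMV-driven firefly luciferase with a downstream miR-21 binding site, 2000 cells/well. Titrations up to approximately 40 uM, 48 hours; luciferase luminescence read.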
An asterisk follows results filed as active. These rows are one share of the data; rates above refer to the full screens.

SMILES | miR-21 FLuc
COC(=O)c1ccccc1NC(=O)c1c(NC(=O)c2ccco2)sc2c1CCC(C(C)(C)C)C2 (stereo not drawn) | 0.2%
CCN1C(=O)c2ccccc2S(=O)c2ccc(C(=O)N3CCN(c4ccccc4OC)CC3)cc21 (stereo not drawn) | -2.1%
COc1cc(CN(CC2CCCO2)C(=O)c2ccc(F)cc2)cc(OC)c1OC (stereo not drawn) | 2.0%
Cc1ccc(Cl)cc1NC(=O)C(NS(=O)(=O)c1ccc2c(c1)CCC(=O)N2)c1ccccc1 (stereo not drawn) | 6.5%
CC(C)Cc1ccc(S(=O)(=O)N2CCN(Cc3noc(CCC(=O)N4CCCCC4)n3)CC2)cc1 | 13.8%
Cc1ccc(-n2c(=O)c3c(C)c(C)sc3n(CC(=O)c3ccc(Cl)cc3)c2=O)cc1C | 2.7%
CC12CN3CC(c4ccccc4)(CN(C1)C3c1ccc(O)cc1)C2=O (stereo not drawn) | -0.8%
CC1CCN(c2oc(-c3cccs3)nc2S(=O)(=O)c2ccc(Cl)cc2)CC1 | 6.5%
Cc1oc(-c2ccc(Cl)cc2)nc1CSc1nc2ncccc2[nH]1 | 0.0%
CCCCNC(=O)Cn1nc(N2CCN(c3ccccc3OC)CC2)ccc1=O | 0.6%
Cc1ccc(S(=O)(=O)NCCc2cn3c(C)csc3n2)cc1 | -9.8%
CCOC(=O)c1c(C)[nH]c(C)c1S(=O)(=O)N(C)CC(=O)Nc1cccc(C(F)(F)F)c1 | -3.0%
COc1ccccc1CNC(=O)c1ccccc1NC(=O)c1nsc2ccccc12 | -16.2%
CCN(c1ccc(OC)cc1)S(=O)(=O)c1nnc(NC(=O)c2ccccc2C)s1 | -33.1%
CCOc1ccccc1NC(=O)c1sc2nc3n(c(=O)c2c1C)CCCCC3 | -1.9%
Cc1cccn2c(=O)c3cc(C#N)c(=O)n(-c4nnc(SCc5ccccc5F)s4)c3nc12 | -1.8%
COc1ccc(-c2nc3scc(CCNS(=O)(=O)c4c(C)cc(C)cc4C)n3n2)cc1OC | 8.0%
Cc1ccc(C)c(N2CCN(C(=O)Cn3c(-c4cccs4)cc4ccccc43)CC2)c1 | 0.4%
Cc1cccc(C)c1NC(=O)Cn1c(=O)n(Cc2ccccc2Cl)c(=O)c2cccnc21 | 1.8%
CC(C)N(Cc1ccccc1)S(=O)(=O)c1ccc(N2CCCCS2(=O)=O)cc1 | 9.1%

Ordered by number of heavy atoms (highest first): 12 of the compounds above
SMILES | miR-21 FLuc
CCN1C(=O)c2ccccc2S(=O)c2ccc(C(=O)N3CCN(c4ccccc4OC)CC3)cc21 (stereo not drawn) | -2.1%
COC(=O)c1ccccc1NC(=O)c1c(NC(=O)c2ccco2)sc2c1CCC(C(C)(C)C)C2 (stereo not drawn) | 0.2%
Cc1cccn2c(=O)c3cc(C#N)c(=O)n(-c4nnc(SCc5ccccc5F)s4)c3nc12 | -1.8%
Cc1cccc(C)c1NC(=O)Cn1c(=O)n(Cc2ccccc2Cl)c(=O)c2cccnc21 | 1.8%
Cc1ccc(C)c(N2CCN(C(=O)Cn3c(-c4cccs4)cc4ccccc43)CC2)c1 | 0.4%
COc1ccccc1CNC(=O)c1ccccc1NC(=O)c1nsc2ccccc12 | -16.2%
CCN(c1ccc(OC)cc1)S(=O)(=O)c1nnc(NC(=O)c2ccccc2C)s1 | -33.1%
CC(C)N(Cc1ccccc1)S(=O)(=O)c1ccc(N2CCCCS2(=O)=O)cc1 | 9.1%
CC1CCN(c2oc(-c3cccs3)nc2S(=O)(=O)c2ccc(Cl)cc2)CC1 | 6.5%
CC12CN3CC(c4ccccc4)(CN(C1)C3c1ccc(O)cc1)C2=O (stereo not drawn) | -0.8%
Cc1oc(-c2ccc(Cl)cc2)nc1CSc1nc2ncccc2[nH]1 | 0.0%
Cc1ccc(S(=O)(=O)NCCc2cn3c(C)csc3n2)cc1 | -9.8%

The results go on:
SMILES | miR-21 FLuc
O=C(Cn1ccn(-c2ccc(F)c(F)c2)c(=O)c1=O)NCc1ccccc1 | -1.0%
Cc1ccc(S(=O)(=O)Nc2ccc3nc(-c4ccc(F)cc4)oc3c2)cc1 | -22.8%
COc1ccccc1C1C(C(=O)Nc2ccccc2)=C(C)Nc2nc(-c3ccccc3)nn21 (stereo not drawn) | 11.7%
O=C(Cn1c(-c2cccs2)cc2cc(F)ccc21)N1CCCCC1 | 0.2%
O=C(NCc1ccc2c(c1)CCN2C(=O)c1ccncc1)c1cccc(F)c1 | 19.2%
CC(C)c1ccc(OCC(=O)Nc2cc(-c3nc4ncccc4o3)ccc2Cl)cc1 | -6.3%
Cc1ccc(CNC(=O)c2cccn2-c2nnc(N3CCCC3)s2)cc1 | 8.1%
CC(CNC(=O)c1cc2cc(S(=O)(=O)N3CCCCC3)ccc2n1C)c1ccccc1 (stereo not drawn) | -8.5%
Cc1cc(Br)ccc1NC(=O)CCNS(=O)(=O)c1cccc2nonc12 | 4.9%
O=S1(=O)c2ccccc2N(Cc2cccc(C(F)(F)F)c2)c2ccccc21 | 27.7%
CCOc1ccc(CNC(=O)CSc2nnc(C)c3c(C)n(-c4ccccc4)nc23)cc1 | 12.2%
CCOc1ccc(CCNC(=O)C2COc3ccccc3C2)cc1OCC (stereo not drawn) | 0.6%
Cc1cc(NC(=O)c2ccccc2F)ccc1-c1nc2ccccc2s1 | -52.0%
O=S(=O)(c1ccc(Cl)cc1)c1nc(-c2ccccc2Br)oc1NCc1ccccc1 | 11.6%
N#C/C(=C\c1ccc(Cl)cc1)c1nc(-c2cc3c(ccc4ccccc43)oc2=O)cs1 | -1.0%
Cc1cccc(NC(=O)c2oc3ccc(S(=O)(=O)N4CCCCC4)cc3c2C)c1C | 13.1%
COc1ccc(CNCc2c(C(=O)O)c(C)n(Cc3ccccc3C)c2C)cc1OC | -11.9%
O=c1[nH]c2ccc(NCc3ccc(-c4ccc(Br)cc4)o3)cc2[nH]1 | 7.1%
CN1CCc2c(sc(NC(=O)CSc3ccccc3)c2-c2nc3ccccc3s2)C1 | -0.2%
CCN(C(=O)Cn1cc(S(=O)(=O)N2CCN(c3ccccc3F)CC2)c2ccccc2c1=O)c1ccc(C)c(C)c1 | 3.6%
Cc1ccc(C(C)C)c(OCC(=O)Nc2ccc3c(c2)nc(CCNC(=O)c2ccco2)n3C)c1 | -6.0%
CCCC(=O)OCc1cnc(C)c2oc(=O)c(C(=O)Nc3ccc(F)cc3C)cc12 | -1.2%
COc1ccc(OCc2cc(C(=O)NC3CCOC(C)(C)C3)no2)c2ccccc12 (stereo not drawn) | -52.0%
COc1ccc(CCNc2nc3ccccc3c3nc(-c4cccc(C)c4)nn23)cc1OC | -33.6%
COc1cc(OC)cc(-c2nc3nc(C)c(CCC(=O)Nc4ccc(C)c(C)c4)c(C)n3n2)c1 | -3.8%
CC(C)(C)c1ccc(-c2nnc(-c3ccccc3NC(=O)c3cccc(C(F)(F)F)c3)o2)cc1 | 0.4%
O=C(CN1C(=O)CC(c2ccco2)Sc2ccccc21)Nc1ccc(OC(F)(F)F)cc1 (stereo not drawn) | 2.9%
Cc1ccc(C)c(NC(=O)CCCn2c(C)c3cnn(-c4ccccc4)c(=O)c3c2C)c1 | 22.3%
Cc1ccccc1Cn1c(=O)n(CCCCCC(=O)NCc2ccc3c(c2)OCO3)c(=O)c2sccc21 | 0.5%
COc1cccc(/C=C/c2nc(C#N)c(NCCc3ccc(OC)c(OC)c3)o2)c1 | 4.4%
CCCC(=O)OCc1cnc(C)c2oc(=O)c(C(=O)Nc3ccccc3)cc12 | 1.2%
CCc1ccccc1Nc1nn2c(=O)c3ccc(C(=O)NC(C)C)cc3nc2s1 | -3.3%
Cc1cccc(Cn2c(=O)n(CCc3ccccc3)c(=O)c3sc4ccccc4c32)c1 | -12.2%
COc1ccc(CCNC(=O)CCc2c(C)nc3c(c(C)nn3-c3ccc(C)c(C)c3)c2C)cc1OC | -2.0%
CCN(c1cccc(C)c1)C(CNS(=O)(=O)c1ccccc1)c1ccccc1 (stereo not drawn) | 28.4%
CC(=O)c1cccc(Nc2nn(-c3ccc(OC(F)(F)F)cc3)nc2C(C)=O)c1 | -23.7%
COc1ccc2c(c1)-c1nc(NC(=O)c3ccc(Cl)cc3)sc1CC2 | -3.4%
O=C(NCC1(c2ccccc2)CCCC1)C(=O)Nc1cccc(C(F)(F)F)c1 | 11.0%
O=C(NCCC1=CCCCC1)c1ccc2c(c1)sc1nc(-c3ccc(F)cc3)cn12 | -5.3%
Cc1ccc(Cn2cc(CCC(=O)NCc3ccccc3F)c3ccccc32)cc1 | 0.3%
Cc1cc(C)cc(NS(=O)(=O)c2ccc(N3CCCCS3(=O)=O)cc2)c1 | 12.9%
CCOC(=O)C1CCN(C(=O)CCS(=O)(=O)c2cc3c(cc2Cl)NC(=O)CO3)CC1 | -3.2%
O=C(NCc1ccccc1Cl)c1ccc2oc(=O)n(Cc3ccccc3)c2c1 | 2.1%
Cc1ccc(Sc2c(C)nn(C(=O)c3ccc(Br)cc3)c2C)cc1 | -0.9%
O=C(OCc1cc(=O)n2nc(-c3cccs3)sc2n1)c1cccc(Cl)c1 | -4.7%
Cc1cc(C)cc(C(=O)Nc2c(C(=O)Nc3ccccc3F)oc3ccccc23)c1 | -5.4%
CCN(CC)C(=O)C1=C(C)Nc2nc3ccccc3n2C1c1ccc(Br)cc1 (stereo not drawn) | -0.5%
Cc1cc(C)cc(Nc2ncnc3sc4c(c23)CCCC4)c1 | -6.4%
Cc1cc(C)cc(NC(=O)Cn2c(=O)oc3cc(S(=O)(=O)N4CCCC4)ccc32)c1 | -5.5%
Cc1ccc(NC(=O)C2CCCN2S(=O)(=O)c2cccc3nsnc23)cc1Cl (stereo not drawn) | 9.6%
COc1ccc(NC(=O)CSc2nnc(-c3ccc(C)cc3)o2)cc1 | -17.4%
Cc1c(Cl)cccc1NC(=O)c1ccc(C(=O)Nc2cccc(Cl)c2C)cc1 | -0.8%
N=c1c(S(=O)(=O)c2ccc(Cl)cc2)cc2c(=O)n3ccccc3nc2n1CCc1ccccc1 | -1.5%
CC(C)c1nn2c(=O)cc(COC(=O)c3ccc(NC(=O)CCc4ccccc4)cc3)nc2s1 | -1.4%
CCOC(=O)c1ccc(NC(=O)CSc2nc3ncc(Br)c(C)c3[nH]2)cc1 | 4.1%
COc1cccc2cc(-c3nc(-c4ccccc4F)no3)c(=O)oc12 | -64.9%
COc1ccccc1CNC(=O)C(NS(=O)(=O)c1ccc2c(c1)CCN2C(C)=O)C(C)C (stereo not drawn) | -1.3%
CCOc1ccc(CN(CCc2ccc3c(c2)OCO3)Cc2cc(OC)c(OC)cc2OC)cc1 | 16.1%
Cc1cccc(OCC(=O)Nc2ccc3nc(Nc4cccc(C(F)(F)F)c4)cc(C)c3c2)c1 | 7.4%
COc1ccc(Cn2c(=O)[nH]c3cc(C(=O)N4CCN(c5cc(Cl)ccc5C)CC4)ccc3c2=O)cc1 | -1.1%

Part of the list above in order of count of non-hydrogen atoms, falling:
SMILES | miR-21 FLuc
COc1ccccc1C1C(C(=O)Nc2ccccc2)=C(C)Nc2nc(-c3ccccc3)nn21 (stereo not drawn) | 11.7%
Cc1cccc(NC(=O)c2oc3ccc(S(=O)(=O)N4CCCCC4)cc3c2C)c1C | 13.1%
Cc1cc(C)cc(NS(=O)(=O)c2ccc(N3CCCCS3(=O)=O)cc2)c1 | 12.9%

Remaining list, next part:
SMILES | miR-21 FLuc
CCC(C)NC(=O)CSc1nc2c(sc3ccccc32)c(=O)n1Cc1ccccc1Cl (stereo not drawn) | -0.3%
CCCCNC(=O)c1ccc2c(c1)NC(=O)C(CS(=O)(=O)Cc1ccc(F)cc1Cl)N2 (stereo not drawn) | -1.8%
CCOC(=O)c1noc2nc(C)n(Cc3ccc([N+](=O)[O-])cc3)c(=O)c12 | -0.3%
O=C(NCc1ccccc1F)C1CCCN(C(=O)N2CCOc3ccccc32)C1 (stereo not drawn) | -7.4%
Cc1ccc(C)c(C(=O)CSc2nc3cc(C(=O)NC4CCCC4)ccc3c(=O)n2CC2CCCO2)c1 (stereo not drawn) | 3.9%
Cc1ccc(C)c(OCCn2c(C3CC(=O)N(Cc4ccc(F)cc4)C3)nc3ccccc32)c1 (stereo not drawn) | 11.2%
O=C(NCCc1ccc(Cl)cc1)C1COc2ccccc2C1 (stereo not drawn) | -12.9%
CC(C)c1cccc(C(C)C)c1NS(=O)(=O)c1cccs1 | -30.7%
O=C(NC1CCCCC1)c1ccc(Cn2c(SCc3ccccc3F)nc3cccnc32)cc1 | 14.0%
COCc1cc(C)nc2sc3c(c12)NC(c1ccccc1C(=O)O)N(c1ccc(OC)cc1)C3=O (stereo not drawn) | -41.7%
COc1cc(C2C(C(=O)Nc3ccccc3C)=C(C)Nc3ncnn32)ccc1OCC(N)=O (stereo not drawn) | 0.9%
CC(C)OCCCn1c(=O)c2ccccc2n2c(-c3ccccc3F)nnc12 | 2.5%
Cc1ccc(Cl)cc1N1CCN(C(=O)c2ccc3c(c2)N(Cc2ccccc2F)C(=O)c2ccccc2S3=O)CC1 (stereo not drawn) | 7.0%
CCN(CC)S(=O)(=O)c1ccc2c(c1)N(CC(=O)Nc1c(C)cc(C)cc1C)C(=O)CS2 | -0.8%
COC(=O)CC1Oc2ccc(F)cc2-n2cc(-c3ccc(C)cc3)nc21 (stereo not drawn) | -20.7%
CCC(C)NC(=O)CSc1nc2n[nH]c(C)c2c(=N)n1-c1cc(Cl)ccc1C (stereo not drawn) | -2.5%
Cc1cccc(C(=O)N(Cc2ccccc2F)C2CCS(=O)(=O)C2)c1 (stereo not drawn) | -3.7%
COc1cccc(OCCn2c(-c3ccc(Cl)cc3)nc3ccccc3c2=O)c1 | -0.4%
CCn1cc(C(=O)NCc2ccccc2)c(=O)c2cc(S(=O)(=O)N3CCCCCC3)ccc21 | -8.9%
CCOc1ccc(C(=O)N2CCC(c3nnc(-c4ccccc4OC)o3)CC2)cc1 | -12.7%
COc1ccc(C(=O)NCC(c2ccc(N(C)C)cc2)N2CCc3ccccc32)cc1 (stereo not drawn) | -6.2%
COc1cc(CNCCSc2nnnn2C)ccc1OCc1c(F)cccc1Cl | 0.5%
